# Bioassay records as filed in PubChem.
# Mtb H37Rv – Mycobacterium tuberculosis H37Rv growth inhibition, putative kinase inhibitor library, confirmatory dose response (AID 2842) | M. tuberculosis H37Rv growth inhibition; higher % means a stronger effect; some inactives read as strong as hits | inhibition, % at 10 µg/mL; hits with a dose series show IC90 in µg/mL | hit rate 5.2% among 24,000;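 active = confirmed in a dose series; inconclusive = mostly over 85% at the one dose but not retested; inactive = below 85% or not confirmed; about a fifth of its hits are not listed in these tables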;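 note: bacteria incubated one week before Alamar blue readout; 0% = bacteria only wells and 100% = bacteria with high antibiotic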
# Starred values were filed as active, the others as inactive; ? = inconclusive. The list is partial; the hit share may differ from the screen's.
SMILES,Mtb H37Rv
CCc1cccc(OCC(O)Cn2c(N3CCOCC3)nc3c2c(=O)[nH]c(=O)n3C)c1 (stereo unspecified),7%
CCOC(=O)c1nn(-c2ccc(OC)cc2)c(=O)c2c(NC(=O)CCC3CCCC3)scc12,4%
CCOc1ccc(C(=O)Nc2c(N)nc(SCc3ccc(Cl)cc3Cl)[nH]c2=O)cc1,-7%
COc1cccc(NC(=O)Cn2cc(C(=O)c3ccc(F)cc3)c(=O)c3cc4c(cc32)OCCO4)c1,2%
CCOc1ccc(-c2ccc(=O)n(CCNC(=O)COc3ccc(Cl)cc3)n2)cc1,-3%
O=C(Nn1cnc2c(cnn2-c2cccc(Cl)c2)c1=O)c1ccccc1C(F)(F)F,2%
CCC(CO)NC(=O)c1cc2cc([N+](=O)[O-])ccc2oc1=O (stereo unspecified),6%
Cc1[nH]c2ccccc2c1C(Nc1ccccn1)c1ccccc1F (stereo unspecified),6%
COc1cccc2sc(Nc3nc4ccccc4s3)nc12,3.4µg/mL*
CC(=O)c1ccc(-c2ccc(/C=C(\C#N)S(=O)(=O)c3ccccc3)o2)cc1,5%
CCOc1ccc(NC(=O)c2csc3c2CCCC3)cc1,6%
CC1CCN(S(=O)(=O)c2ccc(C(=O)Nc3nccs3)cc2)CC1,-12%
CCOc1cccc(-c2nc(C(N)=O)c3[nH]c(=O)n(-c4ccc(C(C)(C)C)cc4)c3n2)c1O,-12%
COc1ccc(Nc2nc(N3CCN(Cc4ccccc4)CC3)nc3nccnc23)cc1,4.7µg/mL*
COC(=O)c1c(NC(=O)c2ccccc2I)sc2c1CC(C)(C)NC2(C)C,13µg/mL*
COc1ccc(/C=C/C(=O)Nc2nnc(-c3ccccc3C)s2)cc1OC,-2%
CCOc1cc(-c2nnc(NC(=O)c3ccc(N(C)C)cc3)o2)cc(OCC)c1OCC,10%
O=C(C1=C(O)C(=O)N(c2nncs2)C1c1cccc([N+](=O)[O-])c1)c1cccs1 (stereo unspecified),-10%
Cc1ccc(Oc2nc3ccccn3c(=O)c2/C=C(\C#N)C(N)=O)c(C)c1,12%
Cc1ccc2nc(NC(=O)NC3CC(=O)N(c4ccc(F)cc4)C3)sc2c1 (stereo unspecified),10%
Cc1cc(NC(=O)CSc2nnc(NC(=O)c3ccc4c(c3)OCO4)s2)no1,1%
COc1cc(-c2nc(C(N)=O)c3[nH]c(=O)n(-c4ccccc4F)c3n2)cc(OC)c1OC,9%
CCCN1CCC2(CC1)NC(=O)N(CC(=O)Nc1ccc(C(=O)OC)cc1)C2=O,-1%
NC(=O)c1c(NC(=O)c2ccccc2)sc2c1CCN(Cc1ccccc1)C2,5%
Cc1cccc2sc(NC(=O)c3ccccc3Oc3ccccc3)nc12,6%
COc1cccc(-c2ccc3nnc(SCc4ccc(F)cc4)n3n2)c1,18%
O=C(c1ccco1)N1CCN(c2ccc(N3CCCCC3)nn2)CC1,9%
Cc1ccc(Nc2nc(NCCO)nc3nccnc23)cc1C,1%
Cc1ccc(-c2cc(C#N)c(NC(=O)c3ccc(Cl)cc3Cl)o2)cc1,-14%
C/C=C/C(=O)Nc1c(C(=O)Nc2ccc(OC)c(OC)c2)oc2ccccc12,10%
CCCc1cc(=O)[nH]c2nnc(SCC(=O)c3ccc(OC)cc3)n12,-11%
COc1ccccc1NC(=O)CSc1nc2c(oc3ccccc32)c(=O)n1-c1cc(C)cc(C)c1,3%
COc1ccc(N2CC(c3nc4ccccc4n3Cc3ccccc3C)CC2=O)cc1 (stereo unspecified),20µg/mL*
CCOC(=O)Nc1c(C(=O)Nc2cccc(Cl)c2)oc2ccccc12,-3%
COC(=O)c1ccc(NS(=O)(=O)c2c[nH]c(=O)[nH]c2=O)cc1,-3%
COc1ccc2nc(NC(=O)c3ccc4ccccc4c3)sc2c1,4%
O=C(Nc1nnc(-c2cccc([N+](=O)[O-])c2)s1)c1ccc2ccccc2c1,3%
Cc1cc(C)c2nc(NC(=O)c3ccc(-c4nc5ccccc5s4)s3)sc2c1,4%
N#CC1=C(SCC(=O)Nc2ccc(Br)cc2)NC(=O)CC1c1ccc2c(c1)OCO2 (stereo unspecified),0%
CC(C)c1nnc(NC(=O)c2cccc3ccccc23)s1,5%
O=C(Nc1nc(-c2ccc3c(c2)OCO3)cs1)c1ccc(Cl)cc1,-13%
CCc1ccc(NC(=O)CN2C(=O)C3(SCC(=O)N3c3ccc(Cl)cc3)c3ccccc32)cc1 (stereo unspecified),7%
CCOC(=O)c1ccccc1NC(=O)CSc1ncnc2c1nnn2Cc1ccccc1F,-6%
COc1ccc(OC)c(-c2nnc(NC(=O)C(C)Sc3nncn3C)s2)c1 (stereo unspecified),-1%
CCOC(=O)CSc1nc(N)c(NC(=O)c2ccco2)c(=O)[nH]1,-4%
Cc1ccccc1NC(=O)CC(C(=O)O)N1CCN(C)CC1 (stereo unspecified),-3%
COc1ccc(NC(=O)C(=O)NCC2COC3(CCCCC3)O2)cc1 (stereo unspecified),3%
CCOC(=O)c1nn(-c2ccc(C(F)(F)F)cc2)c(=O)c2c(NC(=O)c3cc(OC)cc(OC)c3)scc12,11%
COc1ccc(/C=c2\sc3nc(-c4ccncc4)nn3c2=O)cc1OC,-4%
COc1ccc(S(=O)(=O)CC(=O)Nc2nnc(-c3ccc(C)cc3C)o2)cc1,-1%
Cc1ccc(-c2ccc(/C=C(\C#N)c3nc4ccccc4c(=O)[nH]3)o2)c([N+](=O)[O-])c1,4%
Cc1ccc(NC(=O)CSc2nnc(C)c(=O)n2N)cc1Cl,?
Cc1ccc(NC(=O)Cn2nnc(C(=O)NCc3ccc(F)cc3)c2N)c(C)c1,-14%
CCn1c(SCC(=O)Nc2ccccc2OC)nc2c(c1=O)SC(C)C2 (stereo unspecified),5%
O=S(=O)(Nc1cccc(-c2ccc(N3CCOCC3)nn2)c1)c1cccnc1,-2%
O=C(Cn1cc(S(=O)(=O)Cc2ccccc2F)c2ccccc21)Nc1ccc2c(c1)OCO2,-5%
O=C(Nc1nc(-c2ccc(Cl)c(Cl)c2)cs1)c1ccco1,-5%
CCC(C)C1C(C#N)=C(N)Oc2n[nH]c(C)c21 (stereo unspecified),-5%
O=C(Cn1c(=O)n(Cc2ccc3c(c2)OCO3)c(=O)c2oc3ccccc3c21)Nc1ccc(F)cc1,1%
Nc1c(C(=O)OC2CCCCC2)c2nc3ccccc3nc2n1Cc1ccco1,-14%

# The list goes on.
SMILES,Mtb H37Rv
Cc1nc2ccc3nc(NC(=O)/C=C/c4ccccc4)sc3c2s1,4%
O=C(Cc1ccc(Cl)cc1)Nc1c(C(=O)Nc2ccccc2F)oc2ccccc12,-1%
Cc1ccc(C)c(OC(=O)CS(=O)c2ccccc2[N+](=O)[O-])c1 (stereo unspecified),-2%
O=c1/c(=C/c2ccc(Br)cc2)sc2nc(-c3ccncc3)nn12,-5%
O=C(Nc1nnc(-c2ccc(F)cc2)s1)c1ccc2c(c1)OCO2,-6%
Cc1ccc(C2CC(=O)NC(SCC(N)=O)=C2C#N)cc1 (stereo unspecified),-14%
CCN1CCc2c(sc(NC(=O)c3ccc4ccccc4c3)c2C(N)=O)C1,-10%
O=C(NNc1ncnc2c1cnn2-c1ccc(Cl)cc1)c1ccc(Cl)cc1,6%
C#CCn1c(=NC(=O)CCCC)sc2cc(S(N)(=O)=O)ccc21,8%
Cc1ccc(C(=O)Nc2c(N)nc(SCC(=O)N3CCc4ccccc43)[nH]c2=O)cc1,0%
O=C(CCn1cnc2ccccc21)N/N=C/c1cccc([N+](=O)[O-])c1,23%
COc1ccc2nc(NC(=O)c3cc(-c4ccccc4)nc4ccccc34)sc2c1,95%
CSc1nc2ccc3nc(NC(=O)CCc4ccccc4)sc3c2s1,-1%
O=C(CSc1nnc2ccc(-c3cccs3)nn12)NCc1ccccc1,-5%
O=C(Nc1nc2c(s1)CCc1ccccc1-2)c1ccc(Br)cc1F,-4%
COc1ccc2c(c1)c1nnc(-c3ccc(F)cc3)c-1cn2Cc1ccc(F)cc1,81%
Cc1nnc(NC(=O)CSc2ccc3nnc(-c4ccncc4)n3n2)s1,68%
Cc1ccc(C)c(CSc2nnc3[nH]c(=O)ccn23)c1,2%
COc1ccc(-c2nc3c(c(=O)[nH]2)Cc2cc(Br)ccc2O3)cc1OC,-7%
CCCn1c2c(c(=O)[nH]c1=O)C(c1sccc1C)C1=C(COC1=O)N2 (stereo unspecified),0%
CCN(CC)S(=O)(=O)c1ccc(C(=O)NCCc2cc3c(C)ccc(C)c3[nH]c2=O)cc1,-1%
COc1ccc(CC(=O)NCc2nnc(SCC(=O)Nc3nnc(C)s3)n2-c2ccccc2OC)cc1,-6%
O=C1CCc2cc(S(=O)(=O)Nc3ccc(OC(F)(F)F)cc3)cc3c2N1CC3,16%
Cc1ccc(NC(=O)CSc2nc3c(c(=O)n2C)SC(C)C3)cc1 (stereo unspecified),-8%

# In another format: entries from further up
> O=C(CSc1nnc2ccc(-c3cccs3)nn12)NCc1ccccc1
  Mtb H37Rv: -5%

> O=C(Nc1nc2c(s1)CCc1ccccc1-2)c1ccc(Br)cc1F
  Mtb H37Rv: -4%

# The results go on:
SMILES,Mtb H37Rv
CC(C)CNS(=O)(=O)c1ccc2nc(NC(=O)c3cccs3)sc2c1,15%
CC(=O)N1CCc2c(sc(NC(=O)c3ccc([N+](=O)[O-])cc3)c2C(N)=O)C1,69%
Cc1ccc(CN=Cc2c(NCc3ccc(C)cc3)nc3ccc(C)cn3c2=O)cc1,-10%
CCCCNc1nc2c(c(=O)[nH]c(=O)n2C)n1CC(O)COc1ccccc1 (stereo unspecified),-4%
COc1ccc(-c2nnc3ccc(SCc4ccccn4)nn23)cc1,6%
COc1cccc(NC(=O)c2cnc3scc(C)n3c2=O)c1,9%
COc1ccc(C(=O)Nc2nc3ccc(Cl)cc3s2)cc1OC,2%
CCOc1ccccc1NC(=O)c1oc2ccccc2c1NC(=O)c1ccc(Br)o1,-10%
Nc1ncnc(Nc2ccc(Cl)cc2)c1[N+](=O)[O-],8%
Nc1[nH]nc2nc(N3CCCCC3)nc(-c3ccc4c(c3)OCO4)c12,12µg/mL*
COC(=O)C(C)Oc1cc(C)cc2oc(=O)cc(-c3ccccc3)c12 (stereo unspecified),4%
Cn1c(=O)[nH]c(=O)c2c1nc(Br)n2CCSc1nc2ccccc2s1,1%
O=C(Nc1sc2c(c1-c1nc3ccccc3s1)CCCC2)c1c(F)cccc1F,13%
CCC(C(=O)NCCc1cc2cc(C)c(C)cc2[nH]c1=O)c1ccccc1 (stereo unspecified),4%
O=C(CSc1ncnc2c1cnn2-c1ccc(Cl)cc1)Nc1ccc2c(c1)OCCO2,3%
Cc1ccc(-c2nnc(NC(=O)C3CC3)o2)c(C)c1,1.5µg/mL*
CCOC(=O)c1c(NC(=O)c2ccc3c(c2)CCCC3)sc2c1CC(C)(C)NC2(C)C,84%
CN1CCN(c2ncnc3nc[nH]c23)CC1,-1%
Nn1c(SCC(=O)Nc2ccc(Br)cc2)nncc1=O,-7%
O=C(O)c1ccc(NS(=O)(=O)c2cc3c4c(cccc4c2)C(=O)NC3=O)cc1,-25%
COc1cc(C=C2C(=O)c3ccccc3C2=O)ccc1OCc1ccccc1,-7%
O=C1CC(NNc2ccccc2)C(=O)N1c1ccc(N2CCOCC2)cc1 (stereo unspecified),-16%
CCCCCOc1ccc(C(=O)Nc2nnc(-c3ccco3)o2)cc1,8.8µg/mL*
COc1ccc2nc(-c3ccc(C)c(NC(=O)c4ccccc4OC)c3)cn2n1,-12%

# 16 entries from above, sorted by formula weight, ascending.
SMILES,Mtb H37Rv
CN1CCN(c2ncnc3nc[nH]c23)CC1,-1%
Cc1ccc(-c2nnc(NC(=O)C3CC3)o2)c(C)c1,1.5µg/mL*
Nc1ncnc(Nc2ccc(Cl)cc2)c1[N+](=O)[O-],8%
COC(=O)C(C)Oc1cc(C)cc2oc(=O)cc(-c3ccccc3)c12 (stereo unspecified),4%
CCCCCOc1ccc(C(=O)Nc2nnc(-c3ccco3)o2)cc1,8.8µg/mL*
COc1ccc(C(=O)Nc2nc3ccc(Cl)cc3s2)cc1OC,2%
Nn1c(SCC(=O)Nc2ccc(Br)cc2)nncc1=O,-7%
CCC(C(=O)NCCc1cc2cc(C)c(C)cc2[nH]c1=O)c1ccccc1 (stereo unspecified),4%
O=C1CC(NNc2ccccc2)C(=O)N1c1ccc(N2CCOCC2)cc1 (stereo unspecified),-16%
COc1cc(C=C2C(=O)c3ccccc3C2=O)ccc1OCc1ccccc1,-7%
COc1ccc2nc(-c3ccc(C)c(NC(=O)c4ccccc4OC)c3)cn2n1,-12%
O=C(Nc1sc2c(c1-c1nc3ccccc3s1)CCCC2)c1c(F)cccc1F,13%
Cn1c(=O)[nH]c(=O)c2c1nc(Br)n2CCSc1nc2ccccc2s1,1%
CCOC(=O)c1c(NC(=O)c2ccc3c(c2)CCCC3)sc2c1CC(C)(C)NC2(C)C,84%
O=C(CSc1ncnc2c1cnn2-c1ccc(Cl)cc1)Nc1ccc2c(c1)OCCO2,3%
CCOc1ccccc1NC(=O)c1oc2ccccc2c1NC(=O)c1ccc(Br)o1,-10%

# Remaining list, next part.
SMILES,Mtb H37Rv
COc1ccc(OC)c(C2/C(=C(\O)c3ccc(C)cc3)C(=O)C(=O)N2CCCn2ccnc2)c1 (stereo unspecified),6%
O=C(Nc1c(C(=O)Nc2ccc3c(c2)OCO3)oc2ccccc12)c1cccc(F)c1,2%
CCC(C)C1C(C#N)=C(N)Oc2n[nH]c(-c3ccccc3)c21 (stereo unspecified),1%
CCOc1ccc(N=Cc2c(O)cc(C)oc2=O)cc1,?
O=C(NCC1COC2(CCCCC2)O1)c1ccccc1F (stereo unspecified),-4%
Cc1ccc(Nc2nc(Nc3cccc(Cl)c3)nc3nccnc23)cc1,3%
COc1ccc(C(=O)N/N=C/c2cc3ccccc3[nH]c2=O)cc1,1%
O=C(Cc1cccc2ccccc12)Nc1c(C(=O)Nc2ccc3c(c2)OCO3)oc2ccccc12,-6%
COC(=O)c1ccc(NC(=O)CSc2nc(-c3ccc(OC)cc3)ns2)cc1,56%
Cn1c(=O)c2c(SCC(=O)Nc3ccc(Cl)c(Cl)c3)nc(-c3cccs3)nc2n(C)c1=O,-3%
O=C(CSc1nnc2ccc(-c3ccncc3)nn12)Nc1ccc(F)cc1,-8%
O=C(CCCCCN1C(=O)c2ccccc2C1=O)NCCc1ccccc1,-4%
COc1ccc(-c2nnsc2-c2nc3ccccc3[nH]2)cc1,6%
